Assay outcomes: PubChem BioAssay, Fisher Drug Discovery Resource Center
NPYLR7 agonist = mosquito NPYLR7 agonism. HEK293T NPYLR7/Galpha15, GCaMP6s calcium fluorescence. activation, % at 10 µM. 0.15% of 270,000 active. AID 1259423; in the data active means activation above about 40%;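 further: 0% = vehicle and 100% = reference agonist at the receptor; some compounds past the cut are filed as inactive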
NPYLR7 agonist max-min = further read-out of NPYLR7 agonist, marked with its call; activation, %; measured here: Max-Min RFU normalised activation; some inactives read as strong as hits;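 span of the calcium signal over five minutes; 0% = vehicle and 100% = native peptide agonist; compound fluorescence can raise it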
An asterisk follows results filed as active; & = joins results of further samples. The list is partial. The share of hits here may be higher or lower than overall.

item	mol	NPYLR7 agonist	NPYLR7 agonist max-min
1	CN(C)c1ccc(/C=C2/SC(=S)N(CC3CCCO3)C2=O)cc1 (stereo not drawn)	5.5	-2.1
2	CCOC(=O)C1CCN(Cc2cn3c(-c4ccc(OC)cc4)nnc3s2)CC1	-1.5	45.7
3	Cc1c(C)n2c3c(=O)[nH]c(=O)n(C)c3nc2n1Cc1ccccc1	0.1	-1.1
4	O=C(NC1CCN(Cc2ccc(Cl)cc2)CC1)C12CC3CC(CC(O)(C3)C1)C2	-3.1	-1.2
5	Cc1nn(-c2ccccc2)c(Cl)c1CN1CCN(CCO)CC1	9.2	6.2
6	c1cnc(N2CCCC(c3nc4ccccc4[nH]3)C2)nc1 (stereo not drawn)	22.5	13.8
7	CCOC(=O)c1ccc(NC(=O)CSc2nnc(CNC(=O)c3ccco3)n2-c2cc(OC)ccc2OC)cc1	-14.3	-11.3
8	CC(C)CCCC1CN(C(=O)c2ccc3c(c2)OCO3)CCO1 (stereo not drawn)	9.5	7.6
9	COc1ccccc1-n1cc(C(=O)N2CCN3C(=O)CNC(=O)C3C2)cn1 (stereo not drawn)	4.5	1.3
10	CNS(=O)(=O)c1ccc(NS(=O)(=O)c2ccc(OC)c(OC)c2)cc1	1.9	-1.0
11	COc1ccc2nc(SC3CCCCNC3=O)[nH]c2c1 (stereo not drawn)	7.9	4.3
12	Cc1nc(SCc2csc(C(C)C)n2)sc1CC(N)=O	10.2	7.5

item	mol	NPYLR7 agonist	NPYLR7 agonist max-min
13	Cc1ccc(F)cc1S(=O)(=O)N1CCN(c2nccc(-c3ccc(Oc4ccccc4)cc3)n2)CC1	12.4	13.8
14	CO[C@H]1[C@H](NC(=O)Cc2cccs2)c2ccccc2C12CCN(Cc1cc3ccccc3[nH]1)CC2	19.9	1.1
15	O=C1NCCN(CC2CCCCO2)C1c1cccs1 (stereo not drawn)	2.9&-0.6	-0.5&2.2
16	CCCCSc1nnc2c(n1)OC(c1cc3c(cc1Cl)OCO3)Nc1ccccc1-2 (stereo not drawn)	8.0	20.6
17	CC(=O)OC(CN1CCCC1)C(C)(C)C (stereo not drawn)	-11.5	-3.7
18	Cc1cc(C)cc(NC(=O)CC(=O)N[C@@H]2C[C@H]2c2ccccc2)c1	-2.8	-3.5
19	O=C(NCC(F)(F)F)c1cncn1-c1ccccc1	7.7	8.7
20	O=C(NCc1cccs1)NCC1CN(c2ccc(F)cc2)C(=O)O1 (stereo not drawn)	1.7	8.7
21	COc1ccccc1OCc1coc(-c2ccc(C)cc2C)n1	8.1	7.6
22	COCCCN(Cc1csc(COc2cccc(C)c2C)n1)C(=O)c1cccs1	-3.7	3.4
23	C=CCN1C(=O)C(=Cc2c(NCCCn3ccnc3)nc3c(C)cccn3c2=O)SC1=S	4.0	4.1
24	CC1CC(C)CN(C(=O)CN2CCN(c3nnc(Cl)c(N)n3)CC2)C1 (stereo not drawn)	12.5	10.9

Reprinted at random: three entries already listed
item	mol	NPYLR7 agonist	NPYLR7 agonist max-min
17	CC(=O)OC(CN1CCCC1)C(C)(C)C (stereo not drawn)	-11.5	-3.7
15	O=C1NCCN(CC2CCCCO2)C1c1cccs1 (stereo not drawn)	2.9&-0.6	-0.5&2.2
19	O=C(NCC(F)(F)F)c1cncn1-c1ccccc1	7.7	8.7

(more compounds)
item	mol	NPYLR7 agonist	NPYLR7 agonist max-min
25	CC1(C)OC(=O)NC1=O	-5.9&-4.9	-10.2&-6.9
26	c1c[nH]c(-c2nnc(SCc3ccc4c(c3)OCO4)o2)c1	28.6	36.0
27	O=C(c1ccc(SC(F)(F)F)cc1)N1CCc2ccccc2C1c1ccccc1F (stereo not drawn)	-2.2	2.8
28	NC(=O)NC(=O)C(c1ccccc1)N1CCC(c2nc3ccccc3s2)CC1 (stereo not drawn)	-0.3	-3.4
29	Cc1nn(-c2ccccc2)cc1/C=N\Nc1ccc([N+](=O)[O-])cc1[N+](=O)[O-]	-5.5	-0.6
30	COC(=O)NC1CCN(c2ccccc2C(=O)NCCc2ccc(OC)cc2)CC1	17.0	8.9
31	CCN1C(=O)NC(c2ccc(C)cc2C)C2=C1CN(C(Cc1ccccc1)C(=O)Nc1ccc(OC)cc1)C2=O (stereo not drawn)	2.0	10.5
32	CCCc1cc(C(=O)Nc2ccc(N(C)C)nc2)sc1C	-0.3	1.7
33	Cc1ncc(CN2CCOC(C(=O)OC(C)(C)C)C2)s1 (stereo not drawn)	12.3	9.5
34	Cc1ccccc1-n1ncc2c(C(C)C)n[nH]c(=O)c21	-0.7	-0.7
35	CN1CCN(C(=O)c2coc(CN(Cc3cccc(Cl)c3)Cc3cccc(C(F)(F)F)c3)n2)CC1	6.3	6.1
36	Cc1cc(=O)c(C(=O)NCc2nnc(C(C)(C)C)s2)c[nH]1	3.4	2.4

item	mol	NPYLR7 agonist	NPYLR7 agonist max-min
37	CC(=N)C(C#N)c1csc(Nc2cc(C)cc(C)c2)n1 (stereo not drawn)	-1.0	0.3
38	Cc1ccc(C(=O)N2CCN(c3nc(Cc4ccccc4)nc4sc5c(c34)CCCC5)CC2)cc1[N+](=O)[O-]	14.6	17.4
39	CCCn1c2ccccc2n2c(C(C)=O)c(-c3ccccc3)nc12	-12.7	-18.4
40	CCOC(=O)c1ccc2c(c1)nc(SCc1ccccc1SC(F)(F)F)n2Cc1ccccn1	19.6	18.8
41	O=C(Nc1ccc2[nH]cc(CCN3CCN(c4cccc(C(F)(F)F)c4)CC3)c2c1)c1ccc(C(F)(F)F)cc1C(F)(F)F	15.3	9.7
42	CC(C)CCC(=O)N1CC=C(c2c[nH]c3ncccc23)CC1	-4.4	-6.0
43	CC(C)N(C(=O)CN1CCN(C(=O)c2cn(C)cc3c(=O)n(-c4ccccc4)nc2-3)CC1)C(C)C	-4.1	-10.4
44	COc1ccc(C(=O)N2CCN(c3ccccc3Cl)C(=O)C2C)cc1 (stereo not drawn)	-5.8	1.8
45	COc1ccc(OCCSc2nnc(-c3ccc4c(c3)OCO4)o2)cc1	1.2	3.6
46	COc1ccc(Br)cc1S(=O)(=O)n1cnc2ccccc21	9.3	11.4
47	CN(C)C(=O)Sc1cnc2nc(C#N)c(C#N)n2c1	14.3	10.4
48	COc1ccc(S(=O)(=O)Oc2cc(CN(Cc3ccco3)C(=O)c3ccccc3Cl)ccc2OC)cc1	20.0	23.8

item	mol	NPYLR7 agonist	NPYLR7 agonist max-min
49	Cc1cccc(C(=O)Nc2cnc3sc4ccccc4n3c2=O)c1	1.3	-0.6
50	O=C(CC1C=CCC1)N1CCN(Cc2cccc(-c3noc(-c4cccnc4)n3)c2)CC1 (stereo not drawn)	12.3	16.6
51	CN(Cc1ccc(Br)s1)C(=O)c1cn[nH]c1-c1ccc(F)cc1	0.6	-3.3
52	CC1(C2CCN(Cc3cccc4c3OC(F)(F)O4)CC2)NC(=O)NC1=O (stereo not drawn)	-4.3	3.0
53	COc1ccc(S(=O)(=O)N2CCOCC2)cc1N1CCN(C(=O)c2cc(C)oc2C)CC1	22.1	31.7
54	C=CCC(C)(NC1CCCCC1)c1ccccc1 (stereo not drawn)	9.4	7.5
55	CCCN(CC(=O)Nc1cc(-c2ccccc2)nn1-c1ccc(C)cc1C)C(=O)Nc1ccc(F)c(Cl)c1	0.3	8.8
56	Cc1cc(C)c2c(=O)c(-c3nc(-c4ccccc4)c(C)[nH]3)coc2c1	10.1	5.4
57	O=C(c1ccc(S(=O)(=O)NCC2CCCO2)cc1)N1CCN(c2ccc(F)cc2)CC1 (stereo not drawn)	0.0	5.4
58	O=C(CCN1CCC(CCn2cccn2)CC1)Nc1nccs1	0.9	9.5
59	COCc1noc(-c2ccc3c(c2)CCO3)n1	3.4	1.8
60	CCC(=NNC(=O)Cc1cccn1C)c1ccc(O)cc1	-5.4	-4.9

Complete entries from above:
O=C(c1ccc(S(=O)(=O)NCC2CCCO2)cc1)N1CCN(c2ccc(F)cc2)CC1 (stereo not drawn) is listed with NPYLR7 agonist = 0.0; NPYLR7 agonist max-min = 5.4
COc1ccc(S(=O)(=O)N2CCOCC2)cc1N1CCN(C(=O)c2cc(C)oc2C)CC1 is listed with NPYLR7 agonist = 22.1; NPYLR7 agonist max-min = 31.7
Cc1cc(C)c2c(=O)c(-c3nc(-c4ccccc4)c(C)[nH]3)coc2c1 is listed with NPYLR7 agonist = 10.1; NPYLR7 agonist max-min = 5.4

Returning to the listing, starting three compounds before the break.
item	mol	NPYLR7 agonist	NPYLR7 agonist max-min
58	O=C(CCN1CCC(CCn2cccn2)CC1)Nc1nccs1	0.9	9.5
59	COCc1noc(-c2ccc3c(c2)CCO3)n1	3.4	1.8
60	CCC(=NNC(=O)Cc1cccn1C)c1ccc(O)cc1	-5.4	-4.9
61	Cc1ccnc(NC(=O)C(C)(C)c2ccccc2)n1	5.6	4.0
62	Cc1cccc(-n2nnc3c(=O)n(Cc4ccccn4)cnc32)c1	-4.0	-9.5
63	N#CCN(C(=O)COc1ccc2c(c1)CCCC2=O)c1ccccc1	3.2	1.1
64	O=C(CNC(=O)c1cccs1)N=Nc1c(O)n(CCc2ccccc2)c2ccccc12	3.6	-3.2
65	CCn1cc(C(CC(=O)N2CCN(c3ccccc3F)CC2)c2ccc3c(c2)OCO3)c2ccccc21 (stereo not drawn)	-0.4	0.7
66	Cc1cc(C)n(-c2nc3c(c(=O)n2CC(=O)N2CCc4ccccc42)CCCC3)n1	-5.3	-9.0
67	N#Cc1ccc(COC2C[C@](OCc3ccccc3F)(C(=O)NCC3CCCO3)C[C@@H](O)[C@H]2O)cc1 (stereo partly drawn)	1.9	12.9
68	COc1ccc(-c2ccc(F)c(CO)c2)nn1	7.8	5.1
69	CC1(C)CCC(C)(C)c2cc(NC(=O)Nc3ccc4nc([C@H]5C[C@H](O)[C@@H](CO)O5)[nH]c4c3)ccc21	-1.4	-4.4
70	Cc1nn(-c2cccc(F)c2)c(N2CCN(C(C)C)CC2)c1CN(C(=O)CCl)C(C)C	31.7	39.1
71	Cc1c(S(=O)(=O)N2CCN(C(c3ccccc3)c3ccccc3)CC2)c(=O)n(C)c(=O)n1C	2.6	1.3
72	Cc1sc2nc(CN(CC(O)c3ccccc3)C3CCCCC3)[nH]c(=O)c2c1C (stereo not drawn)	12.3	15.0

item	mol	NPYLR7 agonist	NPYLR7 agonist max-min
73	COc1ccccc1CNC(=O)C1(C)CCN1C(=O)c1cc(C)n(C)n1 (stereo not drawn)	2.6	2.3
74	CC(NC(=O)C1CCN(Cc2ccc(Cl)cc2)CC1)c1cccc2ccccc12 (stereo not drawn)	13.2	2.1
75	CCC1CCCCN1Cc1nc2c(c(=O)n(C)c(=O)n2C)n1C(C)C(C)=O (stereo not drawn)	5.4	1.4
76	CC1(C2CCN(S(=O)(=O)c3cccc(Cl)c3F)CC2)NC(=O)NC1=O (stereo not drawn)	0.9	0.3
77	CCCCn1c(C(=O)NCCc2ccccc2)cc2c(=O)n(C)c(=O)n(C)c21	-0.1	-0.7
78	CCC(NC(=O)c1occc1C)c1ccc(S(C)(=O)=O)cc1 (stereo not drawn)	-0.1	13.7
79	CN(C)Cc1csc(-c2nccn2Cc2ccsc2)c1	0.1	-8.0
80	CCNc1ncc(CN2CCCC3(CCN(C(=O)c4c(C)noc4C)C3)C2)cn1 (stereo not drawn)	8.3	7.6
81	Cc1c(C(=O)N(C)c2ccccc2)sc2nc(-c3ccccc3)cn12	-3.4	-4.9
82	Cc1ccc(-n2c(C)c(C)n3c4c(=O)n(CCN5CCCCC5)c(=O)n(C)c4nc23)c(C)c1	2.3	7.8
83	Cc1nnc(N(CCC(N)=O)CCC(N)=O)s1	-6.5	-13.9
84	Cc1ccccc1C1(O)CCN(Cc2cn[nH]c2-c2ccc(F)cc2)C1 (stereo not drawn)	-6.1	-5.5

item	mol	NPYLR7 agonist	NPYLR7 agonist max-min
85	COCCNC(=O)C(NC(=O)c1cccs1)C1CCN(C(=S)Nc2ccc(F)cc2)CC1 (stereo not drawn)	7.1	5.7
86	CCCNC(=O)N1N=C(c2ccc(N)cc2)c2cc3c(cc2C1C)OCO3 (stereo not drawn)	-13.8	-17.7
87	CN(CC(=O)NC1CC1)C(=O)C=Cc1ccc(Cl)cc1	7.4	-1.2
88	Cc1cc(Cl)ccc1OCC(=O)N1CCCC(c2nc(-c3ccncc3)ncc2-c2ccccc2)C1 (stereo not drawn)	26.0	13.7
89	Cc1ccc(C)c(CSC(C)C(=O)N2CCC(C(N)=O)CC2)c1 (stereo not drawn)	2.5	12.6

In another format: results already given
[88] Cc1cc(Cl)ccc1OCC(=O)N1CCCC(c2nc(-c3ccncc3)ncc2-c2ccccc2)C1 (stereo not drawn)
[87] CN(CC(=O)NC1CC1)C(=O)C=Cc1ccc(Cl)cc1

Screen / compound no. | 88 | 87
NPYLR7 agonist | 26.0 | 7.4
NPYLR7 agonist max-min | 13.7 | -1.2
